Anaer choline gr – choline-fed anaerobic bacterial growth inhibition; 55,000 compounds, 0.2% hits; calls only; Gram-negative bacterium anaerobic choline minimal medium, absorbance growth; hits give low values; many inactives read as strong as hits in the columns shown;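 active = growth z-score on choline under -2 at 7 or 20 h with little or no fall on glycerol, limits in tiers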;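 note: stock transfer was 300 nL into about 50 µL; the organism is E. coli; final concentration not given here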
Anaer choline gr early – recorded beside Anaer choline gr, whose call it bears; z-score; measured here: choline growth z-score, timepoint 1;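 score of optical density at 7 h as mean of two plates; lower means less growth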
Active calls of the source: *; i = inactive; & = joins results of further samples. A portion of the library; count on the stated rates, not on these rows.

SMILES | Anaer choline gr | Anaer choline gr early
CCNc1nc(NC)nc(-n2cnc(SC)n2)n1 | i | 0.11
Cc1cccc(C)c1OCc1nc2c3cnn(-c4ccccc4)c3ncn2n1 | i | 0.78
O=S(=O)(Nc1nc2n(n1)C(c1ccccc1)C=C(c1ccccc1)N2)c1ccc(Cl)cc1 (stereo unspecified) | i | 1.5
CCOc1ccc(OCC)c(NC(=O)C2CCCN(C(=O)c3cc(-c4ccncc4)n[nH]3)C2)c1 (stereo unspecified) | i | 0.74
Cc1ccccc1S(=O)(=O)NCCn1c(-c2ccccc2)nc2cccnc21 | i | -0.27
Cc1nn(-c2ccc(-c3ccccc3)nn2)c(C)c1S(=O)(=O)N1CCN(C2CCCCC2)CC1 | i | -0.04
Cc1cc(C(=O)Nc2ccc(Br)cc2)no1 | i | -1.45
COc1ccc(NC(=O)c2ccnc(Nc3ccc(OC)cc3)c2)cc1 | i | 1.35
Cc1nn(C(=O)Nc2ccccc2Cl)c2ccccc12 | i | 1.41
Cc1ccccc1NC(=O)c1csc2c1CCCC2 | i | 0.19
CCN(CC)c1ccc(N2CC(O)=C(c3nc4ccccc4c(=O)[nH]3)C2=N)cc1 | i | 0.34
COc1cc(OC)c(NC(=O)CN2N=NC3C(=O)N(c4ccc(C)c(C)c4)C(=O)C32)cc1Cl (stereo unspecified) | i | -0.01
Cn1nc(-c2nc(C3CC3)no2)c2c1CCN(C(=O)Cc1ccsc1)C2 | i | -1.31
CC1(C(=O)NCc2ccc(F)cc2)CCCN(S(=O)(=O)c2ccc(F)c(Cl)c2)C1 (stereo unspecified) | i | 0.27
COCCNC(=O)Cn1cnc2nn(-c3ccc(C)cc3)cc2c1=O | i | 0.01
Nc1ccc(S(=O)(=O)Nc2nccs2)cc1 | i | -0.08&-0.25
Cc1nnc(NC(=O)CSc2nnc(-c3ccc(Cl)cc3)o2)s1 | i | -0.44
CC(C)CCn1c(=O)c2sccc2n2c(SCc3ccccc3)nnc12 | i | 1.54
CCOC(=O)c1ccc(NC(=O)Cn2nc3c(Oc4ccccc4)nccn3c2=O)cc1 | i | -0.75
CCc1ccc(NC(=O)c2ccc(Nc3ncc(-c4cccc(F)c4)cn3)cc2)cc1 | i | -0.18
Cc1cccc(OC(=O)CSc2nc(-c3ccccc3)nc3cc(=O)[nH]n23)c1 | i | -0.64
CCc1ccc(OC(C)C(=O)Oc2cccc(-n3cnnn3)c2)cc1 (stereo unspecified) | i | 0.83
COc1cccc(Nc2ncc3c(n2)CCN(Cc2cc(OC)ccc2OC)C3)c1 | i | -1.18
COc1ccc2c(c1)CC[C@@H]1[C@@H]2CC[C@]2(C)[C@@H](NCCCCCCN3C(=O)C=CC3=O)CC[C@@H]12 | i | 0.7
Cc1ccc(OCC(=O)Nc2ccccc2-c2nc(-c3ccccc3)no2)cc1 | i | 0.13
N=C1/C(=C2/Nc3ccccc3S2)CC(=O)N1c1ccc(F)cc1F | i | -0.61
COc1ccc(C(=O)N2CCCN(Cc3noc(-c4ccccc4)n3)CC2)cc1 | i | 0.49
Cc1nnc(NC(=O)CSc2ccc3nnc(-c4cccc(F)c4)n3n2)s1 | i | -0.91
O=C(Nc1cccn2c(C3CCC3)nnc12)C1CCCO1 (stereo unspecified) | i | -1.3
Cc1nnsc1C(=O)Nc1ccc(S(=O)(=O)Nc2nccs2)cc1 | i | 0.66
CC(C)CNC(=O)c1cccc(N2C(=O)CCS2(=O)=O)c1 | i | 0.3
Cc1ccc(S(=O)(=O)c2ccc(C(=O)Nc3ccc(Br)cc3F)cn2)cc1C | i | 1.84
COc1cccc(C(=O)NCCc2nc(-c3ccccc3)no2)c1 | i | -0.92
CCn1c(=O)c(N2CCCC(C(=O)NCc3ccc(Cl)cc3)C2)nc2ccccc21 (stereo unspecified) | i | -0.31
Cc1nc(-c2csc(S(=O)(=O)NCc3ccccc3Cl)c2)sc1C | i | -0.18
COc1ccc(N2CCN(C(=O)CCc3nnc4n(Cc5ccccc5)c(=O)c5ccccc5n34)CC2)cc1 | i | -0.71
CCCc1cc(Sc2ccc(NC(=O)C(C)C)cc2)n2ncnc2n1 | i | -0.25
O=S(=O)(c1ccccc1)N1CCN(c2ncnc3c2nnn3-c2ccccc2)CC1 | i | -0.3
Cc1noc(C)c1C1CCCN1C(=O)NCC1CCCO1 (stereo unspecified) | i | -0.37
CCOC(=O)c1c(C)[nH]c(CCC(=O)Nc2ccsc2C(=O)OC)c1C | i | -0.39

A second format for some results above:
Results follow in this order: Anaer choline gr	Anaer choline gr early
- CCNc1nc(NC)nc(-n2cnc(SC)n2)n1
→ i	0.11
- Cc1cccc(C)c1OCc1nc2c3cnn(-c4ccccc4)c3ncn2n1
→ i	0.78
- O=S(=O)(Nc1nc2n(n1)C(c1ccccc1)C=C(c1ccccc1)N2)c1ccc(Cl)cc1 (stereo unspecified)
→ i	1.5
- CCOc1ccc(OCC)c(NC(=O)C2CCCN(C(=O)c3cc(-c4ccncc4)n[nH]3)C2)c1 (stereo unspecified)
→ i	0.74
- Cc1ccccc1S(=O)(=O)NCCn1c(-c2ccccc2)nc2cccnc21
→ i	-0.27
- Cc1nn(-c2ccc(-c3ccccc3)nn2)c(C)c1S(=O)(=O)N1CCN(C2CCCCC2)CC1
→ i	-0.04
- Cc1cc(C(=O)Nc2ccc(Br)cc2)no1
→ i	-1.45
- COc1ccc(NC(=O)c2ccnc(Nc3ccc(OC)cc3)c2)cc1
→ i	1.35
- Cc1nn(C(=O)Nc2ccccc2Cl)c2ccccc12
→ i	1.41
- Cc1ccccc1NC(=O)c1csc2c1CCCC2
→ i	0.19
- CCN(CC)c1ccc(N2CC(O)=C(c3nc4ccccc4c(=O)[nH]3)C2=N)cc1
→ i	0.34
- COc1cc(OC)c(NC(=O)CN2N=NC3C(=O)N(c4ccc(C)c(C)c4)C(=O)C32)cc1Cl (stereo unspecified)
→ i	-0.01
- Cn1nc(-c2nc(C3CC3)no2)c2c1CCN(C(=O)Cc1ccsc1)C2
→ i	-1.31
- CC1(C(=O)NCc2ccc(F)cc2)CCCN(S(=O)(=O)c2ccc(F)c(Cl)c2)C1 (stereo unspecified)
→ i	0.27

(next part)
SMILES | Anaer choline gr | Anaer choline gr early
COc1ccc(CCN2CN=C(Nc3nc4ccccc4s3)NC2)cc1OC | i | -2.57
Cc1noc(C)c1C1CCCN1Cc1ccc(OC(C)C)cc1 (stereo unspecified) | i | -0.13
O=C(CSc1nc2c(c(=O)n1Cc1ccccc1)SCC2)N1CCC(Cc2ccccc2)CC1 | i | 1.05
O=C(COc1ncnc2onc(-c3ccc(F)cc3)c12)NCc1ccc(F)cc1Cl | i | -0.63
Cc1cc(Nc2ccccc2C)nc(C)n1 | i | -0.16
CCc1nc(CN2C(=O)COc3ccc(S(=O)(=O)NCCC(C)C)cc32)no1 | i | -0.45
COC(=O)C1=C(OC(=O)CN2C(=O)c3ccccc3C2=O)c2ccccc2S(=O)(=O)N1C(C)C | i | 1.05
Cc1cc(SCC(=O)N2CCc3ccccc32)nc2ccc(S(=O)(=O)N3CCCC3)cc12 | i | -0.84
O=C(C1CCCCC1)N1CC(OCc2ccc(Cl)cc2)C1 | i | -0.37
O=C1CCC(=O)N1CCn1c2ccc(Br)cc2c2nc3ccccc3nc21 | i | -0.05
Cc1ccc2snc(C(=O)N3CCN(S(=O)(=O)c4cccc(Cl)c4)CC3)c2c1 | i | 1.32
Cc1ccc(C)c(CSc2nnc3n(C)c(=O)c4sccc4n23)c1 | i | -0.73
COc1ccc(N2C(=O)N(Cc3cc(=O)n4ccccc4n3)c3ccccc3S2(=O)=O)cc1OC | i | 0.7
CS(=O)(=O)Nc1nc2ccc(NC(=O)CN3C(=O)COc4ccccc43)cc2s1 | i | 0.75
Cc1ccc(NC(=O)NCc2cc(=O)n3nc(-c4ccccc4)sc3n2)cc1C | i | 1.76
COc1ccc(CN2CCCC2c2c(C)noc2C)cc1 (stereo unspecified) | i | -2.62
COc1ccc(C2CC(=O)C3=C(C2)Nc2onc(C)c2C3c2ccc(O)cc2)cc1OC (stereo unspecified) | i | 1.52
Cc1cccc(NC(=O)N(Cc2nnc3n2CCCCC3)c2ccccc2)c1 | i | 0.37
O=C(Nc1ccc(F)cc1F)N1CCC(N2CCN(Cc3cccc(F)c3)C(=O)C2=O)CC1 | i | -0.46
COC(=O)c1cc(S(=O)(=O)N2CCCC2C(=O)Nc2ccc(OC)cc2)cn1C (stereo unspecified) | i | -1.81
O=C(NC1CCCC1)c1ccc(-n2nc(N3CCCC3)ccc2=O)cc1 | i | -0.84
O=C1C2=C(Nc3ccccc3SC2c2ccccc2F)c2ccccc21 (stereo unspecified) | i | -0.81
O=C(OCC1CCCO1)c1c(-c2ccccc2)c(-c2ccccc2)n[nH]c1=O (stereo unspecified) | i | 0.51
CC(C)c1ccc(Cn2c(=O)c3sccc3n3c(=S)[nH]nc23)cc1 | i | -0.59
O=S(=O)(c1ccccc1)N1CCC(CN2CCCCC2)CC1 | i | -1.41
CCS(=O)(=O)Nc1ccc(C2(C(=O)N(C)Cc3ccccc3)CCCCC2)cc1 | i | -0.7
CCc1ccccc1NC(=O)Nc1c(-c2cccnc2)[nH]c2ccccc12 | i | 1.55
Cc1c2c(nn1-c1ccc(SCC(=O)NCC3CCCO3)nn1)CCC2 (stereo unspecified) | i | -0.29
Cc1onc(-c2ccccc2Cl)c1C(=O)Nc1cccc(C(=O)O)c1 | i | 0.39
Cc1noc(C)c1C1CCCN1S(=O)(=O)c1cc(F)ccc1F (stereo unspecified) | i | -0.16
Cc1ccc(C(C)C)c(OCC(=O)Nc2onc3c2CC(C)CC3)c1 (stereo unspecified) | i | 0.35
O=C(Cn1ccnc1)N1CCCC(OCc2nc(C3CC3)no2)C1 (stereo unspecified) | i | -0.63
Cc1ccc(C(=O)C(C)n2c(=O)n3nc(-c4ccccc4)nc3c3ccccc32)cc1C (stereo unspecified) | i | -0.01
Cc1ccc(NC(=O)CCNS(=O)(=O)c2c(C)[nH]c(C)c2C(=O)N2CCCC2)nc1 | i | 0.63
Cc1ccc(-c2cc(NC(=O)c3oc4c(C)c(C)ccc4c3C)on2)cc1 | i | 0.87
Cc1ccc(CNC(=O)c2nc(N3CCCC3)c3oc4ccccc4c3n2)cc1 | i | 1.42
COc1ccc(OC)c(NS(=O)(=O)c2c(C)nc3sc4ccccc4n3c2=O)c1 | i | -0.07
Cc1ccc(NCc2cc(=O)n3[nH]c(NCc4ccc(C(C)C)cc4)nc3n2)cc1Cl | i | 0.06
Cc1noc2nc(CCC(=O)NCCC3=CCCCC3)nc(N3CC(C)CC(C)C3)c12 (stereo unspecified) | i | -0.45
CCCS(=O)(=O)N1CCC(N2CCN(Cc3ccc(C)cc3)C(=O)C2=O)CC1 | i | 0.33
Cc1noc(C)c1C1CCCN1C(=O)Nc1ccccc1Br (stereo unspecified) | i | -0.01
CCCC(=O)N1CCc2c(c(C(=O)N3CCCC(C(=O)N(CC)CC)C3)nn2C)C1 (stereo unspecified) | i | -0.12
c1ccc(-c2nnc3sc(C4COc5ccccc5O4)nn23)nc1 (stereo unspecified) | i | -0.68
O=C(NCc1c(-c2ccc(F)cc2)nc2n1CCS2)C1CC1 | i | -1.16
COC1(C2=NCCN2)COc2ccccc2O1 (stereo unspecified) | i | 1.4&0.33
Fc1ccc(-c2ccc(CNCC3CCNCC3)o2)cc1Cl | i | -1.09
CCOC(=O)c1c(S(=O)(=O)N2CCC(C(=O)Nc3cccc(Br)c3)CC2)c(C)n(C)c1C | i | 0.46
Cc1ccc(Cn2cc(C(=O)Nc3ccc(-n4cnnn4)c(C)c3)nn2)cc1 | i | 0.35
Cc1ccc(S(=O)(=O)Nc2cc(C(=O)O)cnc2N2CCC(Cc3ccccc3)CC2)cc1C | i | -0.2
Cc1nc2cc(-c3ccccc3)nn2c(C)c1CCC(=O)N1CCC(Cc2ccccc2)CC1 | i | 0.02
O=C(NCc1ccc(F)cc1)c1cnn2c(-c3ccccc3)ccnc12 | i | 0.9
CCc1c(C)sc2c1CCN(CC(=O)Nc1ccccc1C(=O)OC)C2c1ccccc1 (stereo unspecified) | i | -0.67
CCc1cc(=O)[nH]c(Nc2cccc(Cl)c2)n1 | i | -0.91
CCOc1ccc2nc(NC(=O)c3cc4ccc5ccc(C)[nH]c5c4n3)sc2c1 | i | -0.84
CCCN(CCC)C(=O)CN1C(=O)CSc2ccc(S(=O)(=O)N3CCC(C)CC3)cc21 | i | 0.36
CCOC(=O)c1[nH]c(C)c(CN(C(=O)Nc2ccccc2OCC)C2CCCCC2)c1C | i | 0.21
Cc1occc1-c1nnc2sc(COc3ccccc3Cl)nn12 | i | 1.11
CC(C)C(=O)N1CCCc2ccc(NS(=O)(=O)CCc3ccccc3)cc21 | i | 0.72
Cc1cccc(NC(=O)c2c(O)c3ccccc3[nH]c2=O)c1 | i | -0.33
C#CCn1c(CCCCC)nc2ccccc21 | i | -0.04

Continued.
SMILES | Anaer choline gr | Anaer choline gr early
CCCc1cc(C2CCCN2C(=O)Nc2sc3c(c2C(=O)OC)CCCC3)no1 (stereo unspecified) | i | -0.18
Cn1c(=O)n(Cc2ccncc2)c(=O)c2cnc(-c3ccncc3)nc21 | i | -1.62
Cc1nc(C)c(-c2nc(-c3ccc4c(c3)Sc3ccccc3C(=O)N4C3CCCC3)no2)s1 | i | 0.01
FC(F)(F)c1cccnc1N1CCN(c2ncnc3nc[nH]c23)CC1 | i | 0.78
Cc1ccc(NC(=O)N2CCSc3ncccc32)cc1C | i | 1.12
O=C(c1ccc(NC2CCCC2)nn1)N1CCc2ccccc21 | i | -2.15
CCN(CCCNc1cc(C(=O)O)c2ccccc2n1)c1ccccc1 | i | -1.33
CN(CCc1ccc(Cl)c(Cl)c1)CC(O)COc1ccc(NS(C)(=O)=O)cc1 (stereo unspecified) | i | -0.68&0.01
C=CCN(C)C(=O)c1cc2sc(C)cc2n1C | i | 0.08
O=C(Cc1ccc(F)cc1)NCCc1csc2nc(-c3cccc(F)c3)nn12 | i | 0.5
Cc1ccc2[nH]c(=O)c3cc(C(=O)O)sc3c2c1 | i | -0.11
COc1ccccc1NC(=O)C1c2cc(OC)c(OC)cc2C(=O)N(C)C1c1cccnc1 (stereo unspecified) | i | 1.32
O=c1c2[nH]c3ccccc3c2ncn1Cc1nc(-c2ccccc2)no1 | i | 1.52

Source: PubChem (ICCB-Longwood Screening Facility, Harvard Medical School)
